D2 potentiator – potentiates the human D2 dopamine receptor allosterically; DiscoveRx D2 beta-arrestin cells, luminescence, 90 min; 100% = 57 uM dopamine signal; potentiation, % (concentration not given with the values); 0.23% of 360,000 active; active = potentiation of 50% or more; inconclusive = 30% to 50%; inactive = 30% or less;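 also: compound concentration not given in the record; tested on top of an EC20 dose of dopamine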
Target sequence (P14416 whole entry, looked up): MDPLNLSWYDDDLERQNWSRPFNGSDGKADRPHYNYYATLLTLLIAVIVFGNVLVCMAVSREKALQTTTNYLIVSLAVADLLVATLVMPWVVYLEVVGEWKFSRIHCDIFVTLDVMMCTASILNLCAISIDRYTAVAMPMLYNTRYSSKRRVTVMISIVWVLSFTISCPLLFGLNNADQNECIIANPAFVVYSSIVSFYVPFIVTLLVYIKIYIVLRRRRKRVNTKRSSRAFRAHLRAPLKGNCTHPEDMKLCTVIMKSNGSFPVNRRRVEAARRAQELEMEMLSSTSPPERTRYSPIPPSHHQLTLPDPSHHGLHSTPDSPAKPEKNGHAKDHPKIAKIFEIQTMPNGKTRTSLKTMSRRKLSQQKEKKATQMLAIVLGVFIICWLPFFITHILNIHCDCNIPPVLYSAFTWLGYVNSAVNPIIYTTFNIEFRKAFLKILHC
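PathHunter D2 cells, attached overnight at 37 deg C, received compound in DMSO plus dopamine at EC20 (50 nM final) for 90 min at 37 deg C. Beta-arrestin recruitment was read as luminescence after 1 h with detection reagent at ambient temperature.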
Six1-Eya2 blk – inhibitors of human Six1/Eya2 interaction; AID 651725; 0.56% of 360,000 active; AlphaScreen GST-Six1/His-Eya2 binding, biochemical; stronger effect = lower value; control for the full effect not named in the record; Q15475+O00167; activity change, % (concentration not given with the values); in the data active = activity change below about -65%; inconclusive = about -30% to -65%; inactive = above about -30%; also: % is scaled to controls: 0 for no effect and ±100 for the full control effect
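Compounds are tested against tagged Six1 and Eya2 proteins bridged by glutathione donor and nickel acceptor beads; after a one-hour incubation at 37 °C without light, AlphaScreen emission is recorded.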
TRPML1 ag – agonists of human TRPML1 channel; TRPML1-expressing cells, Ca2+ dye fluorescence, FDSS; host cell line not named in the record; reference of the full effect not given here; activation, % (test concentration not listed); 0.12% of 410,000 active; Q9GZU1; AID 624414; in the data active = activation above about 50%; inconclusive = about 30% to 50%; inactive = below about 30%; also: 0% is about no effect; the text of the record puts the active cut at 80%
Target sequence (Q9GZU1 whole entry, looked up): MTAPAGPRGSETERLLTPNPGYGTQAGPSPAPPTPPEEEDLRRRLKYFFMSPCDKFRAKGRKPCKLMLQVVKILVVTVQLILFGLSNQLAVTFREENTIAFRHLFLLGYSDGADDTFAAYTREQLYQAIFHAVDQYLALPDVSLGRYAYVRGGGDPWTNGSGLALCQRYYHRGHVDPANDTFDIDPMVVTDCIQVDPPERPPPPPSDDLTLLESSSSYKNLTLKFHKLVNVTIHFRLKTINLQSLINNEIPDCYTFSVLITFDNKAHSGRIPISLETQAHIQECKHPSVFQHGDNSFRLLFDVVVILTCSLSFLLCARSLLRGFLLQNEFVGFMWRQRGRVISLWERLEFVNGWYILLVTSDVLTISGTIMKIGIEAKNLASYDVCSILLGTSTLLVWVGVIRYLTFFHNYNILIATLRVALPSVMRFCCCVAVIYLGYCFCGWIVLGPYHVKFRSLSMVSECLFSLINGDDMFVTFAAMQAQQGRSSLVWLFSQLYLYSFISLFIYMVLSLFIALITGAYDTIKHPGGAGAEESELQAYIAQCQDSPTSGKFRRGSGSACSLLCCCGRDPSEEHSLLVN
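Agonist activity was taken from a 110 s kinetic Ca2+ dye read on the FDSS after pinning compounds onto TRPML1-DL cells. The cells were seeded at 1,500/well with Tet inducer, incubated about 16 h, then dye-loaded at room temperature.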
CtBP-E1A blk – inhibitors of CtBP/E1A interaction | 0.49% of 340,000 active | AlphaScreen GST-E1A/His-CtBP binding, 1536-well; stronger effect = lower value; control for the full effect not named in the record | activity change, % (concentration not given with the values) | AID 651724; in the data active means activity change below about -65%; inconclusive means about -30% to -65%; inactive means above about -30%; also: % is scaled to controls: 0 for no effect and ±100 for the full control effect
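Protein mix (5X: 125 nM each GST-E1A, His-CtBP) was incubated with pinned compound 2 h at 37 deg C in dark, in 50 mM Tris pH 8.0 buffer with 300 mM NaCl. Glutathione donor and nickel acceptor beads followed; AlphaScreen signal read after 1 h.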
D2 agonist – activates the human D2 dopamine receptor; P14416; DiscoveRx PathHunter D2 beta-arrestin, luminescence, 90 min; 100% = 57 uM dopamine signal; activation, % (test concentration not listed); 0.084% of 360,000 active; AID 624465; in the data active = activation above about 40%; inconclusive = about 15% to 40%; inactive = below about 15%; also: compound concentration not given in the record; the text of the record calls up to 30% inactive
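DiscoveRx PathHunter D2 beta-arrestin cells (2,100/well) attached overnight, then compound-stimulated 90 min at 37 C in HBSS/10 mM HEPES/0.1% Tween-20 buffer; beta-galactosidase complementation read by luminescence after 1 h at ambient temperature. Dopamine 57 uM final (EC100) as control.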
PINK1 expr mod – changes PINK1 expression; 0.2% of 410,000 active; PINK1 immunofluorescence, high-content cytometry, 24 h; AID 624263; Potency, µM (doses to about 76.6 µM), for inactives: top-dose activation (PINK1 increase), actives largely listed as activators; active = well fitted activation curve with a large enough effect; inconclusive = small, poorly fitted or top-dose-only effect; inactive = flat fitted curve, though single readings scatter; cell line not stated here;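 also: potency is read from the fitted curve at half-maximal effect; % of control where 0% means no effect; nearly all actives have a fitted effect of over 65% in size; a mitochondrial uncoupler was the plate control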
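Decision-based qHTS: stable cells, 24 h exposure to five compound concentrations, CCCP as control. Fixed cells stained for PINK1 plus nuclear, mitochondrial and cell markers, cytometer read.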
* = called active by the depositor; ? = inconclusive; · = not tested or not shown; & = joins results of further samples; [ ] = remark or other dose.

SMILES | D2 potentiator | Six1-Eya2 blk | TRPML1 ag | CtBP-E1A blk | D2 agonist | PINK1 expr mod
Nc1ncnc(N)c1NC(=O)c1ccc(OCc2ccccc2)cc1 | -8 | 1 | -0.9 | -2 | -3.2 | 3.1%
O=C(O)CCC(=O)NC(c1ccccc1)c1ccccc1 | 0 | 12 | -0.1 | -20 | -8.1 | -1.6%
COc1ccccc1CNC(=O)c1ccc2nc(N3CCOCC3)sc2c1 | 0 | -1 | -0.7 | 10 | 2.0 | 2.2%
CN(C)/C=C/C(=C\C(=O)C(F)(F)F)Nc1ccc(C(F)(F)F)cc1 | -10 | -1 | 3.3 | 6 | -4.8 | 2.1%
COc1ccc(CC(N)c2csc(NC(=O)c3ccc(OC)cc3)n2)cc1 (stereo not given) | 2 | -17 | 0.2 | ? | 2.5 | 2.4%
CN(C(=O)c1ccccc1Br)C1CCS(=O)(=O)C1 (stereo not given) | -2 | 10 | -0.1 | 4 | -1.4 | 2.9%
CC(C)(C)c1ccc(S(=O)(=O)NCCOCC(F)(F)C(F)F)cc1 | 0 | 5 | 1.6 | 0 | -0.8 | 0.3%[38.3 µM]
C=CCc1cc(Cl)ccc1OCCn1ccnc1 | -3 | -4 | 0.8 | -8 | -0.3 | -0.6%
CC(=O)N(C(C)=O)c1c(C#N)c(C)n(-c2ccccc2)c1C(=O)c1ccccc1 | 2 | 3 | -0.4 | -1 | -1.2 | 2.9%
CCOc1ccc(S(=O)(=O)n2ccc(C)n2)c2ccccc12 | -1 | 2 | 1.3 | -4 | -3.9 | 6.2%
Cc1cc(C(=O)CN2CCN(CC(=O)Nc3ccc(F)cc3)CC2)c(C)n1C1CC1 | -9 | -4 | 5.3 | 2 | -0.7 | -0.6%
O=C(Cn1nc(-c2ccco2)ccc1=O)Nc1cc(C(F)(F)F)ccc1Cl | -8 | 0 | -0.4 | 1 | -0.5 | 0.1%
CN(CCOc1ccc(Cl)cc1)C(=O)CNS(=O)(=O)c1ccc(N(C)C)c([N+](=O)[O-])c1 | -20 | -23 | -0.9 | -9 | -7.2 | -0.1%
COc1ccc(N2CCN(C(=O)CSc3nc4ccccc4c(=O)[nH]3)CC2)cc1 | -5 | -6 | 1.3 | 0 | 5.0 | -1.2%
Cc1cccc(Cn2cc3c(=O)n(Cc4cccc(F)c4)nc-3c3ccccc32)c1 | -1 | -1 | 0.5 | 7 | 3.2 | ?
COc1ccc(-n2nnc3c(=O)n(Cc4ccccc4C)cnc32)cc1 | -15 | 4 | 1.8 | 5 | -3.8 | 19%[38.3 µM]
O=C(CSc1nnc(CN2CCOCC2)n1-c1ccc(Cl)cc1)N1CCc2ccccc21 | -9 | 5 | 0.4 | -7 | -0.3 | 0.9%
Cc1ccccc1NC(=O)CC1C(=O)NCCN1C(=O)c1cccc(Cl)c1 (stereo not given) | -14 | 5 | 0.0&0.2 | -3 | -2.0 | 1.6%&1.3%
COc1ccc(CNC(=O)CN(C(=O)c2csnn2)c2cccc(F)c2)cc1 | -5 | -3 | -0.5 | 6 | -0.2 | 0.1%
CN(CCc1ccccc1)C(=O)c1cccc(NC(=O)Cc2cccc(NC(=O)C3CCN(C(=O)C4CC4)CC3)c2)c1 | -5 | 3 | 1.1 | 2 | -1.3 | 0.6%

6 of these compounds in a different format.
| canonical_smiles | D2 potentiator | Six1-Eya2 blk | TRPML1 ag | CtBP-E1A blk | D2 agonist | PINK1 expr mod |
| --- | --- | --- | --- | --- | --- | --- |
| CCOc1ccc(S(=O)(=O)n2ccc(C)n2)c2ccccc12 | -1 | 2 | 1.3 | -4 | -3.9 | 6.2% |
| Cc1cc(C(=O)CN2CCN(CC(=O)Nc3ccc(F)cc3)CC2)c(C)n1C1CC1 | -9 | -4 | 5.3 | 2 | -0.7 | -0.6% |
| O=C(Cn1nc(-c2ccco2)ccc1=O)Nc1cc(C(F)(F)F)ccc1Cl | -8 | 0 | -0.4 | 1 | -0.5 | 0.1% |
| CN(CCOc1ccc(Cl)cc1)C(=O)CNS(=O)(=O)c1ccc(N(C)C)c([N+](=O)[O-])c1 | -20 | -23 | -0.9 | -9 | -7.2 | -0.1% |
| COc1ccc(N2CCN(C(=O)CSc3nc4ccccc4c(=O)[nH]3)CC2)cc1 | -5 | -6 | 1.3 | 0 | 5.0 | -1.2% |
| Cc1cccc(Cn2cc3c(=O)n(Cc4cccc(F)c4)nc-3c3ccccc32)c1 | -1 | -1 | 0.5 | 7 | 3.2 | ? |

Carrying on.
SMILES | D2 potentiator | Six1-Eya2 blk | TRPML1 ag | CtBP-E1A blk | D2 agonist | PINK1 expr mod
Cc1nn(-c2ccccc2)c(C)c1NC(=O)COC(=O)c1ccc(O)cc1O | 21 | 0 | 1.3 | 4 | -7.9 | -0.7%
Cc1ccc2c(C(=O)CN3CCC4(CC3)OCCO4)c(C)[nH]c2c1 | -26 | 1 | -0.2 | 4 | 0.1 | 2.1%
COc1ccc(CCNC(=O)COC(=O)c2cncc(Br)c2)cc1OC | 4 | -6 | -1.2 | · | 1.3 | 5.3%
CCOc1ccc(NC(=O)c2ccccn2)cc1 | -10 | 6 | -0.6 | -5 | -4.9 | 0.6%
CSCCC(C(=O)NCc1cccs1)N1C(=O)c2ccccc2C1=O (stereo not given) | -6 | 4 | 0.2 | -3 | 1.1 | -0.6%
C[C@@H]1CN([C@@H](C)CO)C(=O)CCCn2cc(nn2)CO[C@H]1CN(C)C(=O)Oc1ccccc1 | 2 | 1 | -0.3 | 0 | -10 | 2.9%
Cc1c(C(=O)N2CCCC2)sc(NC(=O)c2cccs2)c1C#N | -7 | 3 | 2.4 | 9 | -3.5 | 0.6%[38.3 µM]
COCCN1Cc2cccc(C(=O)Nc3ccccc3OC)c2C1=O | -4 | -6 | -1.5 | 1 | -3.3 | -1.9%
Cc1nc2sccn2c(=O)c1S(=O)(=O)Nc1ccc(N2CCN(C)CC2)cc1 | -5 | 6 | -0.8&-0.4 | -4 | -2.2 | 0.1%&-0.5%
CCc1nc(N)nc(N)c1-c1ccc(Cl)cc1 | -12 | 13 | 25&18&18 | -17 | -3.6 | 0.7%
Cc1c(C(=O)NC2CCN(Cc3ccccc3)C2)oc2ccc(Br)cc12 (stereo not given) | -20 | -9 | 0.4 | -18 | 2.4 | 0.9%
Cc1ccc(C(=O)NCCc2nnc3ccc(SCC(=O)Nc4nnc(C)s4)nn23)cc1 | -3 | -1 | -0.3 | 1 | -1.4 | 0.3%
Cn1c(=O)c2c(ncn2CC(=O)Nc2ccccc2N2CCOCC2)n(C)c1=O | 1 | -2 | 0.2 | 6 | -5.3 | -0.8%
O=C(COC(=O)c1cccs1)NC1CCCCC1 | 20 | 1 | -0.8 | -2 | -1.6 | 0.7%
CCCCCCN1C2=NCCN2c2ccccc21 | -20 | 0 | -1.2 | 5 | -1.0 | 3.5%
Cc1ccc(NC(=O)CSc2nnc(C)c(=O)n2N)c(C)c1 | -4 | 5 | 0.3 | -13 | 0.4 | 2.6%
NC(=O)NC1CCCc2c1[nH]c1ccc(Cl)cc21 (stereo not given) | -7 | -3 | 0.0 | -1 | 0.4 | -0.2%
CCc1ccc(OCCNC(=O)c2ccco2)cc1 | -14 | 10 | 1.1 | 8 | -1.7 | 1.1%
COc1cc(/C=C/C(=O)OCC(=O)N2CCCC2)ccc1OCC#N | 0 | 1 | 0.5 | 5 | -5.5 | 0.6%
O=[N+]([O-])c1cc(-c2n(-c3ccccn3)c3ccccc3[n+]2-c2ccccn2)ccc1Cl | -13 | -6 | -0.7 | 2 | -2.5 | -1.8%
CC1CCCC(NC(=O)c2ccc(F)c(S(=O)(=O)N3CCOCC3)c2)C1C (stereo not given) | -11 | 29 | -0.5 | 11 | -4.4 | -0.3%
COc1ccccc1-c1nnc(SCC(=O)O)n1-c1ccccc1 | -3 | 8 | -0.6 | · | -2.0 | 3.3%
Cc1nn(C)c(C)c1S(=O)(=O)N(CC(=O)Nc1nccs1)c1ccc(C(C)C)cc1 | -2 | 3 | 0.1 | 6 | -3.5 | 1.2%
S=C(NCc1ccncc1)Nc1ccc(Cl)c(Cl)c1 | -7 | -13 | 0.2 | -3 | 3.6 | 18%
COc1ccc(/C=C2\OC(=O)c3c(OC)cccc32)cc1OC | 0 | 3 | 0.9 | -2 | 1.9 | 0.4%
C/C(=N\NC(=O)c1cc(C)[nH]n1)c1cccs1 | -40 | -2 | 0.0 | -4 | -0.1 | -1.1%
Cn1cc(SCC(=O)NCc2ccc(F)cc2)c2ccccc21 | -10 | 3 | 0.0 | 2 | -15 | 1.3%
COc1ccc(NC(=O)COc2coc(CN3c4ccccc4CC3C)cc2=O)cc1 (stereo not given) | 5 | 4 | 2.6 | 0 | -1.0 | 10%
COc1ccc(C(=O)NNC(=O)c2ccc(C)cc2)cc1S(=O)(=O)N1CCCC1 | -6 | -6 | -0.4 | -3 | -5.2 | 0.9%
Cc1cccnc1NC(=O)CCCc1c[nH]c2ccccc12 | 7 | 20 | 2.0 | 3 | -5.6 | -0.9%
Nc1ccccc1-c1ccc([N+](=O)[O-])cc1 | -3 | 3 | -1.4 | -2 | 0.8 | 3.3%
COc1ccc(C2C(C(=O)NCCN3CCOCC3)c3ccccc3C(=O)N2C)cc1OC (stereo not given) | -3 | 2 | -0.1 | -4 | -2.0 | -2.5%
CCC(Cc1ccccc1)NC(=O)C1CCCCC1 (stereo not given) | -1 | 3 | 0.2 | -11 | -3.6 | 4.1%
C/C(=N\NC(=O)c1nnn(-c2nonc2N)c1C)c1ccc(-c2ccccc2)cc1 | -3 | 5 | 0.7 | -2 | 0.0 | -2.2%
O=C1NC(=S)SC1=Cc1ccccc1C(=O)O | -6 | -7 | -0.4 | ? | -9.4 | -0.6%
Cc1ccc(OCC(=O)NCCN2CCOCC2)cc1C | -13 | 0 | -0.5 | 7 | -2.1 | -0.1%
Cc1cc(OCC(=O)Nc2ccc(CN3CCOCC3)cc2)c2c(C)cc(=O)oc2c1 | -11 | -11 | 1.2 | · | -4.6 | -1.6%
COc1ccc(C(CNC(=O)c2ccc(NS(=O)(=O)c3ccc(F)cc3)cc2)N2CCOCC2)cc1 (stereo not given) | 6 | 2 | 0.1 | -9 | 0.8 | 4.2%
O=S(=O)(Cc1ccccc1)Nc1ccc(F)cc1 | 4 | 8 | -0.1 | 5 | 5.1 | 0.7%
CN(C)N1C(N)=C(C#N)C(c2ccc(Br)cc2)C2=C1CCCC2=O (stereo not given) | -3 | -3 | 0.1 | 2 | -3.1 | 1.8%
COC(=O)c1ccccc1S(=O)(=O)N1CCC(C(=O)OCC(=O)c2ccccc2OC)CC1 | -17 | -4 | -0.8 | 4 | -4.7 | 3.0%
Cc1nccn1CCCNC(=O)c1nc(Cn2cc([N+](=O)[O-])cn2)no1 | -7 | 3 | -0.2 | 0 | -3.4 | -0.2%
O=c1[nH]c(N2CCCCCC2)nc2ncn(Cc3ccccc3)c12 | -9 | 15 | 0.1 | 23 | 0.7 | -1.3%
O=C(N/N=C/c1ccco1)c1ccc(NC(=O)C2CCCCC2)cc1 | 13 | -4 | -0.6 | -1 | -1.1 | -1.4%
Cc1ccc(-n2c(C)nc3ccsc3c2=O)cc1 | -2 | -9 | 6.3 | 3 | -1.3 | -1.4%
CN1CCN(C(=O)c2cc3c(c(-c4cccc(C#CC(C)(C)O)c4)n2)[C@H](CCO)N(S(=O)C(C)(C)C)C3)CC1 (stereo not given in full) | -8 | 6 | 0.2 | 8 | -3.3 | 2.8%
